Vif A3G = inhibitors of Vif binding to APOBEC3G peptide, primary screen, biochemical, TR-FRET, GST-Vif 1-94, biotin-A3G peptide, dose response retest (AID 1117319) | Virion infectivity factor (Human immunodeficiency virus type 1 group M subtype B (isolate … | TR-FRET GST-Vif / biotin-A3G peptide binding; higher % means a stronger effect; test concentration not given here; strong numbers were not always called active | inhibition, %; hits with a dose series show IC50 in µM | 0.57% of 260,000 active;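 active means above the screen mean plus three standard deviations and confirmed in dose response; inconclusive means results disagree or hit not tested in dose response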;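 further: Vif residues 1-94 fused to GST binding biotinylated APOBEC3G peptide 110-148; 0% = full assay without inhibitor and 100% = GST in place of GST-Vif; retest series ran down from 100 µM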
UCH37 DUB inh = inhibitors of human UCH37 deubiquitinase, primary screen, biochemical, Ub-AMC cleavage, fluorescence; AID 588478, 2011; purified proteasome/UCH37; Ubiquitin carboxyl-terminal hydrolase isozyme L5 (Homo sapiens), Q9Y5K5; inhibition, % (test concentration not listed); 0.33% of 330,000 active;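 active means mean of two replicates above 20%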;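 further: 0% = compound-free wells with enzyme and 100% = wells lacking proteasome; stock transfer was 100 nL into about 20 µL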
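Signal – fluorescence, ex 355 nm, em 460 nm · System – Proteasome-bound UCH37 · Input – 0.15 nM proteasome as dispensed · Timing – 30 min preincubation with enzyme, 25 min cleavage at room temperature · Read-out basis – percent inhibition of cleavage signal versus uninhibited and no-proteasome wells · Medium – Tris-HCl pH 7.4 with ATP-MgCl2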
Beta2AR agonist = beta2AR agonists driving receptor internalization, primary screen, cell-based, FAP fluorogen, flow cytometry; Beta-2 adrenergic receptor (Homo sapiens), P07550; Am2.2-beta2AR cells; reference of the scale not given here; response, % (concentration not given with the values); 0.43% of 340,000 active;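 active means response above a set limit, near 3 SD of response in nonfluorescent compounds, cut at about 42% in these data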;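 further: stock transfer was 100 nL into about 11 µL; a reference agonist was the positive control; negative values mostly stem from fluorescent compounds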
Target sequence (P07550 whole entry, looked up): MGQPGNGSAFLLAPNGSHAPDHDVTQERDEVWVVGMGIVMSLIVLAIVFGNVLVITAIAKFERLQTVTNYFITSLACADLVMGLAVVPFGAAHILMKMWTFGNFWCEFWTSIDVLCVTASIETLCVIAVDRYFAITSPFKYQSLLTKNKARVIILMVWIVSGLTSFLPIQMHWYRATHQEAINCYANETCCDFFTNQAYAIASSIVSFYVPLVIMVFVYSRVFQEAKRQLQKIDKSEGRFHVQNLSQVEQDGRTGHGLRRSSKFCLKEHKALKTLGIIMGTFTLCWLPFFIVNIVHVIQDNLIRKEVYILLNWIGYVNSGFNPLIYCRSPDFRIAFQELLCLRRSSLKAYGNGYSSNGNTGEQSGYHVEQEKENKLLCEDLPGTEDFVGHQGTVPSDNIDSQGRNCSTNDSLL
A1 inh = caspase 3/7 activation in MEF A1-2A-BIM cells, primary screen, A1 inhibitor project, cell-based, luminescence, HTS | Caspase-Glo 3/7 luminescence, 3 h; percent of clofoctol response, vehicle zero | caspase activation, % (concentration not given with the values) | 0.066% of 330,000 active;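 active means over half of replicate activation scores above 10%, or exactly half above 10 with the replicate mean above 10; inconclusive means replicate mean below 10 yet half the replicates above 10; inactive means over half of replicates below 10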;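 further: wells of about 30 µL received 50 nL stock; many hits fall short of the cut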
HNF4A DNA FP = change in binding of human HNF4A to DNA, primary screen, biochemical, fluorescence polarization, FITC-DNA | 1 h | activity change, % at 10 µM | 0.3% of 360,000 active | AID 1224865, 2016; in the data active means activity change above about 30%, passing the limit was not always enough;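 further: controls were the assay level and a saturating level of protein; the project sought stronger binding though the title names inhibitors; some compounds called inactive have numbers as strong as hits; positive values seem to mean higher polarization but the record does not say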
Target sequence (P41235 whole entry, looked up): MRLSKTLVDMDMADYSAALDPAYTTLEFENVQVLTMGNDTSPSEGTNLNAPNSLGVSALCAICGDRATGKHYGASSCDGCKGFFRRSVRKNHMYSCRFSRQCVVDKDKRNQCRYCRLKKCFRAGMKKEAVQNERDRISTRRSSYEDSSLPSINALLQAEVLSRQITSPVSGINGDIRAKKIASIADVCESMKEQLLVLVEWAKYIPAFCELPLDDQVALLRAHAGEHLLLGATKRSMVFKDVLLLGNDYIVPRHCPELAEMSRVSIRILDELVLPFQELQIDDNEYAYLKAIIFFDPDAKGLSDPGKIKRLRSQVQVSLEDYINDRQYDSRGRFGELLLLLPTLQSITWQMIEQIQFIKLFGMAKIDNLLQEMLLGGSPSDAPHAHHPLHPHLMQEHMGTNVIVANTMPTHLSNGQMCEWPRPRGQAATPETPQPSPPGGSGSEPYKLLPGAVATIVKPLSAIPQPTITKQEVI
E coli growth = E. coli growth inhibition, primary screen, OD600 | 0.21% of 330,000 active | OD600 absorbance (test concentration not listed) | AID 1053175, 2014 | Escherichia coli growth, 23 h; active compounds read low;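 active means OD600 absorbance below the run mean of sample wells minus 3.6 SD, in any replicate, cut at about 0.56 in these data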;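 further: stock transfer was 300 nL into about 60 µL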
LANA-H2A inh = blockers of LANA interaction with H2A/H2B – biochemical, FP readout, HTS, primary screen | Protein LANA1 (Human herpesvirus 8 type P (isolate GK18)), Q9QR71 | cell-free LANA-H2A/H2B peptide, fluorescence polarization | inhibition, % (concentration not given with the values) | 0.6% of 320,000 active | AID 2629, 2010; in the data active means inhibition mostly above about 10%, no sharp cut-off; inactive means mostly below about 6.7%;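 further: stock transfer was 7.5 nL into about 10 µL; 0% = median of vehicle wells and 100% = median of positive control wells; one replicate is shown; the record names a cut of 25% in any replicate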
* = called active by the depositor; ? = inconclusive; . = no result given.

SMILES | Vif A3G | UCH37 DUB inh | Beta2AR agonist | A1 inh | HNF4A DNA FP | E coli growth | LANA-H2A inh
COc1ccc(NS(=O)(=O)c2cn(C)cn2)cc1 | . | 6.3 | 5 | 0.3 | -4.8 | 0.68 | -0.1
CCOc1ccc(NS(=O)(=O)c2ccc(C)c(C(N)=O)c2)cc1 | 7% | 3.5 | -7 | -0.5 | -3.7 | 0.68 | 1.7
C[N+](C)(C)CCCN1C(=O)CCCC1=O | -4% | 1.5 | -1 | 0.3 | 3.2 | 0.72 | 4.0
CN1CCN(Cc2c(O)ccc3c(=O)c(Oc4ccccc4Cl)c(C(F)(F)F)oc23)CC1 | 4% | 3.6 | 3 | -0.1 | 3.2 | 0.73 | -1.5
COc1ccc(C)cc1S(=O)(=O)N(C)CC(=O)NCc1ccncc1 | . | 2.4 | -1 | 1.2 | -0.3 | 0.65 | -2.4
CC(=O)Nc1ccc(NC(=O)COC(=O)C2c3ccccc3Oc3ccccc32)cc1 | . | -0.6 | 0 | . | -1.7 | 0.69 | .
Cc1cn(-c2cccnc2)c(C)c1CNC[C@H]1O[C@@H](n2cnc3c(N)ncnc32)[C@H](O)[C@@H]1O | . | -0.7 | -5 | 0.0 | -0.9 | 0.72 | .
C=C(C)C1CC=C(C)/C(=N/NC(=O)CNc2ccc(OCC)cc2)C1 (stereo not drawn) | -6% | . | -11 | -0.7 | 0.8 | . | -4.1
CC(=O)Nc1ccc(NC(=O)CSc2ccc(-c3cccs3)nn2)cc1 | -15% | 2.9 | -17 | -0.2 | 1.6 | 0.66 | 3.9
CCc1sc(C(=O)Nc2cc(Cl)ccc2N2CCCCC2)cc1C | -2% | -4.1 | 3 | -1.2 | 2.6 | 0.69 | -7.5
Cc1ccc(NC(=S)NC(NC(=O)C(C)(C)C)C(Cl)(Cl)Cl)c(C)c1 (stereo not drawn) | 8% | 1.5 | 1 | 0.2 | 3.3 | 0.67 | 2.8
CCOc1ccccc1C(=O)NCC(=O)NCc1ccc(S(=O)(=O)N2CCOCC2)cc1 | 1% | 0.9 | 1 | 0.0 | -0.7 | 0.7 | -2.2
Cc1cccc(OCC(=O)Nc2ccc3c(c2)nc(CCN2CCN(C)CC2)n3C)c1 | ? | 2.6 | -1 | 1.0 | 1.4 | 0.7 | -2.3
Cc1nn(CC(=O)N(C)C2CCC(C)CC2)c(C)c1S(=O)(=O)N(C)C (stereo not drawn) | 2% | 2.0 | 5 | -0.8 | -3.5 | 0.68 | 1.7
CCNC(=S)N/N=C/c1ccc(OCC(=O)Nc2ccc(C)cc2)cc1 | 3% | . | 3 | 1.8 | -3.0 | . | 0.6
Cc1cccc(C(=O)NC(=S)Nc2ccc(S(=O)(=O)N3CCN(C)CC3)cc2)c1 | 3% | 1.4 | -6 | 0.5 | 3.9 | 0.7 | -1.5
O=C(N/N=C1/CC2C=CCC12)c1ccc(Br)o1 (stereo not drawn) | . | . | 6 | 0.2 | 2.5 | . | 2.9
Cc1cc(C)c2c(N)c(C(=O)NN3CC(=O)N(c4ccccc4)CC3=O)sc2n1 | 5% | -368 | -8 | 1.0 | 4.5 | 0.63 | -0.7
Cc1ccc(S(=O)(=O)N2C[C@@H]3[C@H]4CC[C@H](C4)[C@@H]3[C@@H](C)C2CC(=O)c2ccccc2)cc1 (stereo partly drawn) | 2% | -0.3 | 5 | . | -4.2 | 0.7 | .
CC(C)S(=O)(=O)c1cnc(N2CCOCC2)nc1N | . | 1.0 | 2 | -0.6 | 4.2 | 0.7 | -4.4
CCc1nnc(NC(=O)OCc2ccccc2)s1 | -4% | 0.9 | -4 | -0.2 | 1.3 | 0.72 | -6.9
Cc1cc(S(=O)(=O)N2CCCC2)ccc1OCC(=O)N1CCCCC1 | . | . | -7 | -0.3 | 0.3 | . | 0.6
CC(C)(CCl)C(=O)Nc1ccc(OC(F)(F)F)cc1 | 6% | 4.9 | 6 | 0.3 | 0.5 | 0.7 | 1.1
O=C(Nc1ccc(C(=O)N2CCC(N3CCCC3)CC2)cc1)c1ccc(Br)o1 | . | 1.0 | -2 | -0.9 | 6.7 | 0.63 | -1.3
O=C(Cc1cccs1)NCCc1cn2ccccc2n1 | -3% | -0.7 | 4 | -0.2 | 1.9 | 0.69 | 5.0
O=C(CSc1ccc(-c2ccccn2)nn1)NC1CCCCC1 | -11% | 4.1 | -2 | 0.0 | 2.6 | 0.7 | 2.0
Cc1cc(C(=O)OCC(=O)N2CCC(C)CC2)c2ccccc2n1 | . | 1.8 | 1 | 0.7 | 2.5 | 0.71 | 0.9
CCC(Oc1ccccc1)C(=O)Nc1ccccc1N1CCCC1 (stereo not drawn) | . | 2.2 | 6 | 0.1 | -1.1 | 0.68 | 0.9
COc1ccc(NC(=O)NCc2ccc3c(c2)OCO3)cc1OC | . | 3.7 | -3 | -0.9 | -4.0 | 0.72 | -1.5
Cc1ccc(SC[C@H](C)CN2CC[C@H](C(C)(C)C)CCC2=O)cc1 | . | . | -5 | 1.3 | 3.2 | . | 1.7

3 entries already listed, ordered by their value in Vif A3G, high to low.
Structure | Vif A3G
CC(C)(CCl)C(=O)Nc1ccc(OC(F)(F)F)cc1 | 6%
O=C(Cc1cccs1)NCCc1cn2ccccc2n1 | -3%
O=C(CSc1ccc(-c2ccccn2)nn1)NC1CCCCC1 | -11%

The results go on.
SMILES | Vif A3G | UCH37 DUB inh | Beta2AR agonist | A1 inh | HNF4A DNA FP | E coli growth | LANA-H2A inh
Cn1ncc([N+](=O)[O-])c1C(=O)Nc1ccc(C2CCCCC2)cc1 | . | 4.4 | 2 | 0.0 | -2.8 | 0.7 | 0.4
CCOC(=O)C1=NN(c2ccccc2)C(=O)/C1=C\c1ccc(N(C)C)cc1 | 16% | 2.8 | 8 | 1.4 | -0.8 | 0.72 | -0.9
FC(F)(F)c1cccc(NC(=S)N2CCN(c3cccc(C(F)(F)F)c3)CC2)c1 | 1% | 2.1 | 6 | 0.3 | -1.5 | 0.79 | -1.7
COCCCNC(=O)C1CCC(CNS(=O)(=O)c2ccc3c(c2)CC(C)N3C(=O)C2CC2)CC1 (stereo not drawn) | . | 0.8 | -10 | -1.3 | -2.1 | 0.7 | -4.9
CN(C)c1ccc(NC(=O)c2cn(-c3ccccc3)nc2-c2cccs2)cc1 | 6% | -1.2 | -1 | 0.3 | -0.8 | 0.71 | -2.1
CC(C)(CNc1ccc(S(=O)(=O)C(F)(F)F)cc1[N+](=O)[O-])N1CCOCC1 | . | 2.1 | 1 | 0.3 | 3.7 | 0.68 | 27*
O=C(COC(=O)c1ccc(F)cc1F)Nc1ncccn1 | ? | 2.8 | -6 | -0.2 | 39* | 0.68 | 1.0
O=C(O)c1ccc2c(c1)C(=O)N(c1ccc([N+](=O)[O-])cn1)C2=O | -3% | 7.6 | 1 | -0.2 | -2.2 | 0.6 | -3.5
O=C(NCc1ccccc1)c1noc2c1CCCC2 | 13% | 2.1 | -1 | 0.9 | 0.5 | 0.63 | -6.8
COc1cccc(/C=C2\SC(=S)N(CCC(=O)NCCc3ccc(O)cc3)C2=O)c1 | . | 0.8 | -1 | 0.1 | 1.7 | 0.7 | -2.2
CC(=O)Nc1ccc(S(=O)(=O)N(C)CC(=O)NC2=NCCS2)cc1 | 1% | 2.7 | 2 | 0.1 | -2.9 | 0.79 | -1.8
COc1ccc(/C(N)=N/OC(=O)Cc2ccc(C)cc2)cc1 | -4% | 4.2 | 2 | 0.3 | 3.6 | 0.69 | -6.5
COc1cc(NC(=O)CCNS(=O)(=O)c2cc(Br)cnc2N)cc(OC)c1 | -7% | 1.5 | 8 | -0.7 | 4.8 | 0.63 | -1.1
C#CCn1cc(/C=N/Nc2nc3ccccc3[nH]2)c2ccccc21 | 2% | . | -4 | -0.7 | 0.8 | . | 1.2
C[C@]12CCC3c4ccc(OCC(=O)O)cc4CCC3C1CCC2=O (stereo partly drawn) | 10% | 3.7 | 14 | 0.0 | 1.8 | 0.64 | -1.2
Cn1nc([N+](=O)[O-])nc1S(C)(=O)=O | ? | 5.1 | 0 | . | -21 | 0.62 | .
O=C(NCc1ccco1)c1cc(-c2ccncc2)nc2ccccc12 | 7% | 2.1 | -16 | -0.2 | 1.2 | 0.73 | 1.0
CC1=NN(c2nc(-c3ccc(Cl)cc3)cs2)C(=O)C1 | 26% | 4.2 | 6 | -0.9 | 1.1 | 0.68 | 0.1
CS(=O)(=O)N(CC(=O)N1CCN(Cc2ccccc2)CC1)C1CCCCC1 | ? | -1.7 | 4 | 1.0 | 6.7 | 0.7 | 8.2
CCNC(=S)N1CCN(c2cccc(C(F)(F)F)c2)CC1 | 25% | 1.4 | -1 | -0.2 | 0.1 | 0.69 | -4.5
CCOc1ccccc1N1C(=O)CC(Nc2ccc(N3CCOCC3)cc2)C1=O (stereo not drawn) | >51µM* | 2.0 | 7 | 0.6 | 3.2 | 0.7 | 13
COc1cc(C(F)(F)F)nc2ccc(C#CCOC(=O)Nc3ccccc3)cc12 | 4% | 0.9 | 4 | -0.9 | -1.9 | 0.64 | -3.4
Cc1nn(CC(=O)N2CCC(C)CC2)c(=O)c2cccn12 | . | 3.2 | -1 | -0.8 | 0.9 | 0.68 | -2.3
CCOC(=O)c1c(C)[nH]c(C(=O)C(C)OC(=O)c2cnc(C)cn2)c1C (stereo not drawn) | -4% | 3.9 | 16 | . | 1.6 | 0.68 | .
CCOC(=O)c1ccc(N2C(=O)CC(N3CCN(C/C=C/c4ccccc4)CC3)C2=O)cc1 (stereo not drawn) | 7% | . | -5 | . | 0.6 | . | .
COc1ccccc1NC(=O)CN1CC(=O)Nc2ccccc21 | 11% | 4.6 | -1 | 1.7 | -1.9 | 0.72 | -0.3
CCC(N1CCOC1=O)S(=O)(=O)c1ccc(C)cc1 (stereo not drawn) | 1% | -0.2 | -1 | -0.7 | 1.5 | 0.72 | -1.4
CCCCNCc1cc(OCC)c(OCC(N)=O)cc1Br | -1% | 5.0 | 5 | -0.2 | -1.1 | 0.66 | -0.6
O=[N+]([O-])c1ccccc1NC1CCN(Cc2ccccc2)CC1 | 5% | 5.0 | -5 | -0.7 | -0.5 | 0.62 | -0.1
COc1ccc(NC(=O)/C(C#N)=C\C=C\c2ccco2)cc1 | . | 9.8 | -6 | 0.3 | -0.2 | 0.69 | 3.2
COc1ccc(-n2c(SCC(=O)N3CCCC(C)C3)nnc2-c2cccnc2)cc1 (stereo not drawn) | 3% | 1.3 | 0 | -0.3 | 3.5 | 0.72 | 0.2
O=C(COC(=O)CNS(=O)(=O)c1ccc2ccccc2c1)Nc1ccc2c(c1)OCO2 | . | 4.8 | -1 | -0.1 | 2.9 | 0.74 | 3.6
COc1ccc(N(C=O)C(C(=O)Nc2c(C)cccc2C)c2ccccc2)cc1 (stereo not drawn) | . | 4.7 | -4 | 0.0 | 0.5 | 0.7 | 1.3
CC(=O)c1nnn(-c2ccc(F)cc2F)c1C | -5% | 4.0 | -18 | 0.2 | 2.1 | 0.68 | 0.3

Compound activity (PubChem)

Outcome played no part in choosing rows; overall some 2.1% were active at least once.
